D2 PAM: positive allosteric modulators of human D2 dopamine receptor; P14416; DiscoveRx D2 beta-arrestin cells, luminescence, 90 min; 100% = 57 uM dopamine signal; potentiation, % (concentration not given with the values); 0.23% of 360,000 active; AID 624464; active = potentiation of 50% or more; inconclusive = 30% to 50%; inactive = 30% or less;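 further: compound concentration not given in the record; tested on top of an EC20 dose of dopamine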
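PathHunter D2 cells, attached overnight at 37 deg C, received compound in DMSO plus dopamine at EC20 (50 nM final) for 90 min at 37 deg C. Beta-arrestin recruitment was read as luminescence after 1 h with detection reagent at ambient temperature.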
D2 ag: activates the human D2 dopamine receptor; P14416; DiscoveRx PathHunter D2 beta-arrestin, luminescence, 90 min; 100% = 57 uM dopamine signal; activation, % (test concentration not listed); 0.084% of 360,000 active; AID 624465; in the data active = activation above about 40%; inconclusive = about 15% to 40%; inactive = below about 15%; further: compound concentration not given in the record; the text of the record calls up to 30% inactive
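DiscoveRx PathHunter D2 beta-arrestin cells (2,100/well) attached overnight, then compound-stimulated 90 min at 37 C in HBSS/10 mM HEPES/0.1% Tween-20 buffer; beta-galactosidase complementation read by luminescence after 1 h at ambient temperature. Dopamine 57 uM final (EC100) as control.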
CtBP-E1A inh: blocks the CtBP interaction with E1A; AlphaScreen GST-E1A/His-CtBP binding, 1536-well; hits give low values; control for the full effect not named in the record; activity change, % (no concentration beside the values); 0.49% of 340,000 active; AID 651724; in the data active means activity change below about -65%; inconclusive means about -30% to -65%; inactive means above about -30%; further: on the % scale 0 is the no-effect control and ±100 the full control effect; compound concentration not given in the record
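Homogeneous bead-based format: GST-tagged E1A captured on glutathione donor beads, His-tagged CtBP on nickel acceptor beads; compounds precede bead addition by 2 h at 37 °C.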
Six1-Eya2 inh: inhibitors of human Six1/Eya2 interaction. activity change, % (test concentration not listed). AlphaScreen GST-Six1/His-Eya2 binding, biochemical; hits give low values; control for the full effect not named in the record. 0.56% of 360,000 active. Q15475+O00167; in the data active = activity change below about -65%; inconclusive = about -30% to -65%; inactive = above about -30%; further: on the % scale 0 is the no-effect control and ±100 the full control effect; compound concentration not given in the record
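Homogeneous AlphaScreen proximity assay pairing GST-Six1 with His-tagged Eya2 (added as 5X mix: 250 nM and 500 nM) in 50 mM Tris pH 8.0, 300 mM NaCl, 1 mM TCEP. Glutathione donor and nickel acceptor beads; 1 h, 37 °C, dark.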
TRPV1 PAM: potentiators of human vanilloid receptor 1 (TRPV1). Q8NER1. 0.02% of 320,000 active. AID 540277. potentiation, % at 8.33 µM. TRPV1-expressing cells, Fluo-8 calcium influx, capsaicin EC20 potentiation; host cell line not named in the record; control for the full effect not named in the record; active means potentiation above 80%; inconclusive means 30% to 80%; inactive means below 30%; further: 0% is about no effect
Target sequence (Q8NER1 whole entry, looked up): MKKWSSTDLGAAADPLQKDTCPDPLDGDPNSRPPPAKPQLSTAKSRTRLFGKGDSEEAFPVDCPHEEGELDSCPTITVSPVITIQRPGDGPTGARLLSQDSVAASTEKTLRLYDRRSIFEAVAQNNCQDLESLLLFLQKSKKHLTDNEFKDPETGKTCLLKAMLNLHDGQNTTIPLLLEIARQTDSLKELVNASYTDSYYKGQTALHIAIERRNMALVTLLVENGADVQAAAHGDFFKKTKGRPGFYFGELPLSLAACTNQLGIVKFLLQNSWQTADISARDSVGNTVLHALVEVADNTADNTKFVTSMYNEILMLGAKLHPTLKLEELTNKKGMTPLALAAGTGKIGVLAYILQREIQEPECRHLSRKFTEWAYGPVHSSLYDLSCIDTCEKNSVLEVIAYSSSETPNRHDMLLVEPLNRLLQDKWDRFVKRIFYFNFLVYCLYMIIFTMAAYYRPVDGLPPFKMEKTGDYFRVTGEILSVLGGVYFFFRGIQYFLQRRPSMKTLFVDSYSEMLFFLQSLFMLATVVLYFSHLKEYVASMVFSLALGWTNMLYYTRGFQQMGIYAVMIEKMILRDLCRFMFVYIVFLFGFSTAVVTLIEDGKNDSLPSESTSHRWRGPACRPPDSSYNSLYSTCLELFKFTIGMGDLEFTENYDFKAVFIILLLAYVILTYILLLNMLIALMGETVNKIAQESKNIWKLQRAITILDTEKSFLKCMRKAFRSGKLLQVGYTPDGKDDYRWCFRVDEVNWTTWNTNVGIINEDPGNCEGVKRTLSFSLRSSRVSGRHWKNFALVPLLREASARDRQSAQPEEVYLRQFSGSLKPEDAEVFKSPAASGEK
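TRPV1-expressing cells were cultured overnight at 35.5C and loaded with Fluo-8 calcium dye for 40 to 90 min at room temperature. After a 10 s baseline, compound was added and calcium influx was read kinetically for 3 min (ex 480/em 520 nm).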
Sfp inh: Sfp phosphopantetheinyl transferase inhibition. Biochemical Sfp PPTase activity, qHTS. Potency, µM, without a hit: max response, negative = inhibition, actives largely listed as inhibitors. 3.5% of 310,000 active; active means well fitted inhibition curve with a large enough effect; inconclusive means small, poorly fitted or top-dose-only effect, or another doubt; inactive means no such curve, though single readings can be large or run the other way;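 further: the enzyme is Sfp with the accession as filed and its product quenches rhodamine fluorescence; potency means the concentration at half of the fitted maximal effect; 0% = enzyme reaction without inhibitor and -100% = no enzyme wells; top concentration of the series not given in the record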
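After 15 min at room temperature with compound, 15 nM Sfp received 5 uM rhodamine-CoA plus 12.5 uM BHQ-2-ybbR (50 mM Hepes pH 7.6, 10 mM MgCl2). Rate came from the fluorescence difference over 30 min, ex 525/em 598 nm.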
PINK1 expr mod: PINK1 expression modulation | PINK1 immunofluorescence, high-content cytometry, 24 h | Potency, µM (titrated, usually from 76.6 µM), inactives show top-dose activation (PINK1 increase), usual class: activators | 0.2% of 410,000 active | AID 624263; active = well fitted activation curve with a large enough effect; inconclusive = small, poorly fitted or top-dose-only effect; inactive = flat fitted curve, though single readings scatter; cell line not stated here;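 further: potency means the concentration at half of the fitted maximal effect; % of control where 0% means no effect; nearly all actives have a fitted effect of over 65% in size; a mitochondrial uncoupler was the plate control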
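Compound titrations (5 concentrations, 24 h) on a stable cell line; DMSO and CCCP controls. Endpoint: fixed-cell PINK1 immunofluorescence with mitochondrial, cell and nuclear markers, scanned by microplate cytometer.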
Numbers without * were called inactive; u = inconclusive; x = no result given; [ ] = another dose, or the depositor's remark.

Sequence of screens – D2 PAM | D2 ag | CtBP-E1A inh | Six1-Eya2 inh | TRPV1 PAM | Sfp inh | PINK1 expr mod
- CC(CCc1ccccc1)NC(=O)C1CCCN(c2nnc(-n3cccc3)s2)C1 (stereo not given)
    2 | -0.3 | -3 | -12 | 4 | -4% | 4.1%
- COc1ccc(C=NCCC2(O)CC(C)N(C)CC2C)cc1 (stereo not given)
    -13 | -0.8 | -2 | 5 | -5 | 10% | 1.2%
- O=C(CCNC(=O)c1ccc([N+](=O)[O-])cc1)Nc1ccc(S(=O)(=O)N2CCOCC2)cc1
    u | 10 | 1 | -1 | -32 | x | 1.9%
- Cc1c(Nc2scc(-c3ccccc3)[n+]2-c2ccccc2)c(=O)n(-c2ccccc2)n1C
    -1 | -6.7 | 4 | -10 | 0 | u | -0.2%
- CCOc1ccc(-c2noc(CCC(=O)NCC3CCCO3)n2)cc1OC (stereo not given)
    -2 | -18 | 5 | 1 | 23 | 11% | 2.3%
- COc1ccc(N2CCN(CC(=O)Nc3sccc3C#N)CC2)cc1
    -10 | 0.0 | -10 | -12 | -9 | u | 1.7%
- c1cc(-c2nnc(-c3ccncc3)o2)ccn1
    -8 | -1.8 | -2 | -3 | x | 1% | 8.3%
- Cc1c(/C=N/NC(=O)CNc2ccccc2)c2ccccn2c1C(=O)c1ccncc1
    -7 | -2.6 | -6 | 1 | 5 | 19% | 0.2%
- CCc1nc(SCC(=O)Nc2ccc(N(CC)CC)cc2)n[nH]1
    -3 | -3.0 | 7 | 8 | x | x | 0.3%
- CC(C)N1C(=O)C(=O)N(CC(=O)N2c3ccccc3NC(=O)CC2C)C1=O (stereo not given)
    6 | -0.9 | -3 | 4 | 7 | x | 1.0%
- COc1cccc(/C=C/C(=O)OCC(=O)c2cc(C)n(CC3CCCO3)c2C)c1OC (stereo not given)
    1 | -0.8 | -16 | -14 | -15 | -11% | 0.0%
- CC(CCc1ccccc1)NC(=O)COC(=O)c1ccc(S(C)(=O)=O)c([N+](=O)[O-])c1 (stereo not given)
    -6 | -1.8 | -13 | -11 | -5 | 13% | -0.8%
- CN1C=Nc2c(ncn2C2CCC(CO)O2)C1O (stereo not given)
    x | x | 7 | 10 | x | x | -0.1%
- O=C(c1ccc(Cl)c(S(=O)(=O)N2CCCCCC2)c1)N1CCN(c2ccccn2)CC1
    -8 | -0.4 | -11 | -3 | -10 | -8% | 11%[38.3 µM]
- Cn1ccc2c(-c3ccc(F)cc3)cc3c(c21)C1CCC3C1 (stereo not given)
    -2 | -6.1 | -10 | -18 | x | x | 17%
- O=C(NC1CCCCC1)Oc1ccccc1
    -2 | -0.6 | 5 | 5 | -5 | 13% | -1.2%
- CSc1nc(-c2ccco2)nn1C(=O)c1ccccc1Cl
    -6 | -2.4 | 4 | 2 | -10 | u | 3.3%
- N/C(=N\OC(=O)c1ccccc1)C(Cc1ccccc1)C(=O)NOC(=O)c1ccccc1 (stereo not given)
    14 | 13 | -6 | 4 | x | x | -4.1%
- Cc1nc(Cl)sc1C(=O)Nc1ccc(F)cc1
    3 | -1.7 | 4 | -5 | x | x | 2.5%
- CCN(CC(=O)Nc1sc2c(c1C#N)CCC(C)C2)Cc1nc2ccccc2c(=O)[nH]1 (stereo not given)
    1 | 3.0 | 1 | 4 | -34 | -23% | 2.8%

Arranged by length of the SMILES (smallest number first): part of the list above
Sequence of screens – D2 PAM | D2 ag | CtBP-E1A inh | Six1-Eya2 inh | TRPV1 PAM | Sfp inh | PINK1 expr mod
- c1cc(-c2nnc(-c3ccncc3)o2)ccn1
    -8 | -1.8 | -2 | -3 | x | 1% | 8.3%
- CSc1nc(-c2ccco2)nn1C(=O)c1ccccc1Cl
    -6 | -2.4 | 4 | 2 | -10 | u | 3.3%
- CCN(CC(=O)Nc1sc2c(c1C#N)CCC(C)C2)Cc1nc2ccccc2c(=O)[nH]1 (stereo not given)
    1 | 3.0 | 1 | 4 | -34 | -23% | 2.8%

The list goes on.
Sequence of screens – D2 PAM | D2 ag | CtBP-E1A inh | Six1-Eya2 inh | TRPV1 PAM | Sfp inh | PINK1 expr mod
- Cc1cc(Cl)ccc1NC(=S)NCCCO
    -8 | -5.2 | -17 | 1 | 8 | 9% | -1.4%
- Cc1nn(CC(=O)O)c2ccccc12
    -5 | -0.4 | 6 | 1 | 4 | -4% | -3.0%[38.3 µM]
- CCCOc1ccc(F)cc1-c1cc(C(=O)NCc2ccco2)[nH]n1
    -6 | 5.3 | -10 | -13 | x | x | 0.5%
- CCOCC(=O)Nc1nc(C)cc(C)n1
    -8 | -4.2 | x | -2 | 4 | 15% | -1.6%
- O=[N+]([O-])c1ccc(C2=NCCO2)cc1
    5 | -4.1 | x | 0 | -4 | 10% | 0.4%
- Cc1cccc(C(=O)NC(=S)N2CCN(C)CC2)c1
    -7 | 0.2 | 2 | 2 | x | -29% | u
- O=C(Nc1nnc([C@H]2C[C@H](O)[C@@H](CO)O2)s1)C(c1ccccc1)c1ccccc1
    -10 | -2.7 | 0 | 1 | x | x | 1.6%
- Cc1ccccc1OCC(=O)Nc1ccncc1
    4 | 0.6 | 3 | 7 | -2 | 8% | 1.1%
- CN(CCc1ccccc1)C(=O)c1cccc(NC(=O)Cc2cccc(NC(=O)C3CCN(C(=O)c4ccccc4)CC3)c2)c1
    11 | 4.4 | 23 | 21 | x | x | -1.0%
- Oc1ccccc1N1CCN(C(=S)Nc2ccc(SC(F)F)cc2)CC1
    23 | 7.9 | 0 | -14 | -13 | 2% | 4.4%
- Cc1ccc(OCC(=O)n2nc(C)cc2C)c(C)c1
    -15 | -3.0 | 12 | 4 | 0 | 7% | 0.7%
- COc1ccc(C(=O)Nc2ccc(Cl)cc2C(=O)N2CCCC(C)C2)cc1OC (stereo not given)
    -4 | 3.1 | 0 | -12 | -6 | 4% | 6.8%
- N#Cc1ccccc1C[C@H](N)C(=O)NC[C@H]1O[C@@H](n2ccc(N)nc2=O)[C@H](O)[C@@H]1O
    7 | -1.8 | -23 | 7 | x | x | -1.1%
- O=C(Nc1ccn(CCCN2CCN(c3ccccc3)CC2)c(=O)n1)OCc1ccccc1
    x | 0.1 | -8 | -3 | x | x | 7.5%
- COC(=O)C1(C(C[N+](=O)[O-])c2ccc(C)cc2)C(=O)NCC1c1ccco1 (stereo not given)
    -11 | -3.2 | -1 | -1 | -9 | 5% | -1.1%
- CCOC(=O)N1CCN(C(=O)c2ccc3c(c2)N=C(C)c2cc(Cl)ccc2S3)CC1
    7 | 6.3 | -5 | -6 | -14 | -8% | 1.3%
- COc1ccc(C(=O)N(CC(=O)NC(C)(C)C)c2ccc3c(c2)OCCO3)cc1OC
    -5 | -2.1 | 1 | -1 | -1 | 12% | -5.0%[38.3 µM]
- Cc1sc2ncnc(N3CCC(C(=O)Nc4sc5c(c4C(N)=O)CCC(C)C5)CC3)c2c1C (stereo not given)
    -2 | -3.0 | 4 | -1 | 6 | x | 2.9%
- COc1ccc2sc(N(CCCN(C)C)C(=O)c3ccc(S(=O)(=O)N4CCc5ccccc5C4)cc3)nc2c1
    -10 | u | -2 | -26 | 0 | x | -4.2%
- O=C(Nc1cccc(Cl)c1Cl)C1CCCC1
    -2 | -2.2 | 5 | 9 | x | x | -0.3%
- COc1ccc(C2(CNC(=O)CCC(=O)O)CCCC2)cc1
    10 | -0.2 | 5 | 10 | 1 | 9% | -0.2%
- COc1ccc(C2=NN3C(C2)c2ccccc2OC32C(=O)N(C)c3ccccc32)cc1 (stereo not given)
    -5 | 0.8 | -7 | -11 | u | u | 1.1%
- Cc1ccc(C)c(NC(=O)N2CCc3ccccc3C2)c1
    -3 | 0.1 | 9 | 5 | 11 | 7% | 1.1%
- CC(=O)c1sc(N/N=C2\CC3CC2C(C)C3(C)C)nc1C (stereo not given)
    -2 | 4.8 | -1 | -2 | 3 | 35µM* | 19%
- CCOc1nc2cnccc2n(CC(=O)Nc2ccccc2F)c1=O
    -4 | 7.4 | x | 1 | -9 | 16% | 1.2%
- Cc1ccc(OCC(=O)NCCNC(=O)c2ccncc2)cc1C
    -7 | -1.8 | 5 | -5 | -3 | 17% | 1.7%
- COc1cc(NC(=O)COC(=O)CNC(=O)C23CC4CC(CC(C4)C2)C3)cc(OC)c1
    1 | -1.0 | -27 | -1 | -5 | x | -0.4%
- Cc1ccc(NC(=O)CSCC(=O)N(C)Cc2c(F)cccc2Cl)cc1
    -9 | -2.5 | 0 | 0 | x | x | 0.2%
- O=C(N=Nc1c(O)[nH]c2ccccc12)c1cccs1
    -17 | -3.8 | u | -20 | -30 | -28% | 3.4%
- O=c1[nH]cc(S(=O)(=O)N2CCN(c3ccc(F)cc3)CC2)c(=O)[nH]1
    -11 | -2.6 | 0 | 52 | x | x | 3.2%
- COc1ccc(N(CC(=O)Nc2cccc(C)c2C)S(=O)(=O)c2c(C)[nH]c(=O)[nH]c2=O)cc1
    -4 | 0.3 | -3 | -3 | x | 9% | 0.1%
- CN1CCN(C(=O)c2ccc(C(F)(F)F)cc2)CC1
    -18 | -2.4 | 2 | 1 | -9 | 6% | 1.8%
- CC(OC(=O)C1CC1C)C(=O)Nc1ccc(Cl)cn1 (stereo not given)
    -5 | -2.4 | -3 | 10 | -6 | x | -1.2%
- O=C(COC(=O)C1CCC1)Nc1cccc(Cl)c1
    -3 | -3.4 | 1 | 1 | -20 | x | 1.8%
- COc1ccc(-c2nc(CC(=O)Nc3cccc(S(=O)(=O)NC4=NCCC4)c3)cs2)cc1
    -1 | -4.8 | x | -14 | u | x | -1.2%
- Cc1cccnc1NC(N)=S
    -1 | 2.5 | -12 | 3 | u | -12% | 0.7%
- N#CC1(c2nc3ccccc3[nH]2)CC1c1ccc2c(c1)OCO2 (stereo not given)
    -5 | 3.5 | -1 | 0 | -15 | 7% | -2.1%
- Oc1c(/C=N/c2ncn[nH]2)ccc2ccccc12
    -2 | -3.9 | -1 | -5 | 9 | -5% | 4.4%
- O=C1CCCN1c1ccc(Br)cc1
    -8 | -2.2 | 4 | 17 | 4 | 8% | -3.0%
- CNC(=O)CSc1nnc(-c2ccncc2)n1Cc1ccccc1
    -15 | -2.3 | 2 | 9 | 11 | 13% | -1.5%
- O=C(/C=C/NCc1cccnc1)C(F)(F)C(F)(F)F
    5 | -6.5 | 0 | 22 | 6 | 7% | 1.6%
- Cc1cc2c(cc(C(=O)N3CCC(C(=O)N4CCCC4)CC3)n2Cc2c(F)cccc2Cl)o1
    -4 | -0.2 | -9 | -2 | -19 | 50µM* | 0.3%

Assay outcomes from PubChem.
